TRPV1 PAM – enhances activation of the human vanilloid receptor TRPV1; Q8NER1; TRPV1-expressing cells, Fluo-8 calcium influx, capsaicin EC20 potentiation; host cell line not named in the record; control for the full effect not named in the record; potentiation, % at 8.33 µM; actives 0.02% (n = 320,000); active means potentiation above 80%; inconclusive means 30% to 80%; inactive means below 30%; note: 0% is about no effect
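Fluo-8 calcium influx in TRPV1-expressing cells, kinetic read (ex 480/em 520 nm). Compound added and read 3 min for agonist activity, followed by capsaicin at EC20 final and 2 min further read for enhancement.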
Six1-Eya2 blk – Six1/Eya2 interaction inhibition | AlphaScreen GST-Six1/His-Eya2 binding, biochemical; stronger effect = lower value; control for the full effect not named in the record | activity change, % (test concentration not listed) | actives 0.56% (n = 360,000) | AID 651725; in the data active = activity change below about -65%; inconclusive = about -30% to -65%; inactive = above about -30%; note: % is set by controls: 0 for no effect and ±100 for the full control effect; compound concentration not given in the record
Target sequence (O00167 whole entry, looked up): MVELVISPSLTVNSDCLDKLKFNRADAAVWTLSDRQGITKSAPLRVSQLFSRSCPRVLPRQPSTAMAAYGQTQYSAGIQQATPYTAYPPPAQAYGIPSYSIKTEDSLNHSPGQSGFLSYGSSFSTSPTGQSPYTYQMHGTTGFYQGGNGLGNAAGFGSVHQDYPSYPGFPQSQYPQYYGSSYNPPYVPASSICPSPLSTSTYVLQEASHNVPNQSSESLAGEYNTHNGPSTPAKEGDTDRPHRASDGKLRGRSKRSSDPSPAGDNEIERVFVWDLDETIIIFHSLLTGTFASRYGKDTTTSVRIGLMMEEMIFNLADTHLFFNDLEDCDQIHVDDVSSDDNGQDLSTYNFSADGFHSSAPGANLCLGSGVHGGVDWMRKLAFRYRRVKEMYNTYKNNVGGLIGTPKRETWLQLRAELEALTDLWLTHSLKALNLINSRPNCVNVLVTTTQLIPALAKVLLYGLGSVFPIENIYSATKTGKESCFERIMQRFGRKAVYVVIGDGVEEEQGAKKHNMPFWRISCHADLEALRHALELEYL
Target sequence (Q15475 whole entry, looked up): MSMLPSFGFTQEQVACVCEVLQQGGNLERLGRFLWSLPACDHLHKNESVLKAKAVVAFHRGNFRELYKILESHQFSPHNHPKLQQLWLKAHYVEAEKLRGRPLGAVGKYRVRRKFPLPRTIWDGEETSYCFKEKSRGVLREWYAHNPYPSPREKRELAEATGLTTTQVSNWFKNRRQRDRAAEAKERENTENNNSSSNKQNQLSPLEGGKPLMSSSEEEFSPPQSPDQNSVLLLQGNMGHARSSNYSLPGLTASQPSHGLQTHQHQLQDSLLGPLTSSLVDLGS
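Six1/Eya2 binding was read as AlphaScreen signal after compounds were pinned into GST-Six1 plus His-tagged Eya2 (5X stock 250/500 nM) in pH 8.0 Tris/NaCl/TCEP buffer, beads added, then incubated 1 h, 37 C, dark.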
CtBP-E1A inh – CtBP/E1A binding inhibition; actives 0.49% (n = 340,000); AlphaScreen GST-E1A/His-CtBP binding, 1536-well; stronger effect = lower value; control for the full effect not named in the record; activity change, % (concentration not given with the values); AID 651724; in the data active means activity change below about -65%; inconclusive means about -30% to -65%; inactive means above about -30%; note: % is set by controls: 0 for no effect and ±100 for the full control effect
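Protein mix (5X: 125 nM each GST-E1A, His-CtBP) was incubated with pinned compound 2 h at 37 deg C in dark, in 50 mM Tris pH 8.0 buffer with 300 mM NaCl. Glutathione donor and nickel acceptor beads followed; AlphaScreen signal read after 1 h.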
D2 ag – human D2 receptor agonism in beta-arrestin assay. P14416. DiscoveRx PathHunter D2 beta-arrestin, luminescence, 90 min; 100% = 57 uM dopamine signal. activation, % (test concentration not listed). actives 0.084% (n = 360,000); in the data active = activation above about 40%; inconclusive = about 15% to 40%; inactive = below about 15%; note: compound concentration not given in the record; the text of the record calls up to 30% inactive
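Agonist mode: compounds alone added to overnight-plated D2 PathHunter cells for 90 min at 37 C, with 57 uM final dopamine (EC100) defining full response. Beta-arrestin recruitment detected by chemiluminescent reagent, read after 1 h at ambient temperature.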
Sfp PPTase inh – inhibitors of Bacillus subtilis Sfp phosphopantetheinyl transferase; Potency, µM, without a hit: max response, negative = inhibition, hits mostly inhibitors; actives 3.5% (n = 310,000); Q9F4F7; Biochemical Sfp PPTase activity, qHTS; active = well fitted inhibition curve with a large enough effect; inconclusive = small, poorly fitted or top-dose-only effect, or another doubt; inactive = no such curve, though single readings can be large or run the other way;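 note: the enzyme is Sfp with the accession as filed and its product quenches rhodamine fluorescence; potency is the fitted concentration of half-maximal effect; 0% = enzyme reaction without inhibitor and -100% = no enzyme wells; top concentration of the series not given in the record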
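Sfp 15 nM + cpd, 15 min RT; start w/ rhodamine-CoA 5 uM, BHQ-2-YbbR 12.5 uM (final); 50 mM Hepes pH 7.6, 10 mM MgCl2, 0.01% NP-40, 0.01% BSA; read 525/598 nm at 0 and 30 min.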
D2 PAM – positive allosteric modulators of human D2 dopamine receptor | P14416 | AID 624464 | potentiation, % (concentration not given with the values) | DiscoveRx D2 beta-arrestin cells, luminescence, 90 min; 100% = 57 uM dopamine signal | actives 0.23% (n = 360,000); active = potentiation of 50% or more; inconclusive = 30% to 50%; inactive = 30% or less;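 note: compound concentration not given in the record; tested on top of an EC20 dose of dopamine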
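PathHunter beta-arrestin assay in DiscoveRx D2 cells. Compounds were added with an EC20 of dopamine (50 nM final) for 90 min at 37 deg C. Luminescence was read 1 h after detection reagent, with 57 uM dopamine as the EC100 control.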
PINK1 expr mod – changes PINK1 expression | PINK1 immunofluorescence, high-content cytometry, 24 h | Potency, µM (top dose mostly 76.6 µM), for inactives: at the highest dose activation (PINK1 increase), most hits filed as activators | actives 0.2% (n = 410,000); active = well fitted activation curve with a large enough effect; inconclusive = small, poorly fitted or top-dose-only effect; inactive = flat fitted curve, though single readings scatter; cell line not stated here;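 note: potency is the fitted concentration of half-maximal effect; % of control where 0% means no effect; nearly all actives have a fitted effect of over 65% in size; a mitochondrial uncoupler was the plate control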
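Fluorescence from anti-PINK1 antibody, together with nuclear and cell stains, was scanned on a laser-scanning cytometer. Before staining, stable-line cells were incubated 24 hours with compounds at 5 concentrations; primary antibody 12 h at 10 degrees C.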
An asterisk follows results filed as active; ? = inconclusive; / = no result given; & = joins results of further samples; [ ] = dose if it differs, or a comment.

SMILES	TRPV1 PAM	Six1-Eya2 blk	CtBP-E1A inh	D2 ag	Sfp PPTase inh	D2 PAM	PINK1 expr mod
O=C(COC(=O)c1ccc(F)c(S(=O)(=O)N2CCOCC2)c1)NCc1ccc(Cl)cc1	/	0	10	-1.1	/	0	4.3%
CCCCn1c(N)c(N(CC(C)C)C(=O)c2ccc(-c3ccc(C(C)=O)cc3)o2)c(=O)[nH]c1=O	1	-4	9	-1.3	/	-21	-6.5%
Cc1ccc(-n2c(=S)[nH]c3[nH]ncc3c2=O)cc1	2	-2	/	-1.9	-25%	-7	-0.9%
CC(=O)NN1C(=O)/C(=C\c2ccc(Cl)cc2)SC1=S	-3	-5	-13	-4.1	4%	-16	2.5%
CCN(C(=O)COC(=O)C1CCN(S(=O)(=O)c2ccc3c(c2)OCCO3)CC1)C1CCCCC1	6	3	-3	2.1	/	-7	0.9%
COc1ccccc1-c1nnc(SCc2ccccn2)n1C	-7	4	-6	0.8	-13%	-4	0.3%[38.3 µM]
CC(C)(C)c1ccc(Oc2ccc(NC(=O)C3CC=CCC3C(=O)O)cc2)cc1 (stereo unspecified)	1	3	-3	0.9	?	4	4.1%
COc1ccc(-n2ccnc(SCC(=O)NC3CCCCC3)c2=O)cc1	-2	-2	-3	-2.0	8%	-6	-0.9%
Fc1ccc(C2CCCN2Cc2nc(-c3cnccn3)no2)cc1 (stereo unspecified)	-24	2	/	-0.9	1%	-9	-1.6%
CCOC(=O)c1c(C)[nH]c2cc(Br)c(O)cc12	-10	?	?	-2.8	-19%	-6	1.8%
COc1ccc(COC(=O)CCNC(=O)c2ccc(Cl)cc2)cc1	-23	11	0	-1.7	/	-4	0.3%
Cc1c(C(=O)NCCc2ccc(S(N)(=O)=O)cc2)cccc1[N+](=O)[O-]	-1	0	4	0.5	22%	-2	1.1%
CNC(=O)CSc1nnc(COc2ccc(Cl)cc2)n1CCOC	-5	3	5	3.6	22%	-13	-0.4%[38.3 µM]
NC(=O)NC(=O)COC(=O)c1cccc(NS(=O)(=O)/C=C/c2ccccc2)c1	-4	-8	-12	-1.8	5%	-22	-0.8%
CCn1c(O)c(/C=N/N=C/c2ccc(OC)cc2)c2cc(C3=NNC(=O)CC3)ccc21	?	5	0	-5.8	-21%	-6	?
CN1CCN(S(=O)(=O)c2cccc3nsnc23)CC1	-1	-2	3	-4.6	10%	-2	3.5%
CCC(C)NC(=O)c1ccc(NC(=O)C2CCCO2)cc1 (stereo unspecified)	-44	0	-4	-3.1	10%	-3	-2.5%
Cc1cc(NC(=O)C(C)SCC(=O)Nc2ccc(C(=O)OC(C)C)cc2)no1 (stereo unspecified)	/	-5	1	-3.2	/	-9	0.6%
Cc1nc(C)c(Oc2ccc(Cl)cc2Cl)c(=O)[nH]1	-14	-19	1	-5.5	8%	-22	1.3%
CSCCC(NC(=O)c1cccc(C)c1)C(=O)O (stereo unspecified)	12	7	/	1.3	13%	-2	-1.9%
CC(C)OCC(O)CN (stereo unspecified)	-6	1	-5	-0.5	7%	3	-0.6%
Cc1oc2cc3oc(=O)c(CC(=O)NCC(=O)N[C@@H](C(=O)O)c4ccccc4)c(C)c3cc2c1C	13	-20	-12	-2.8	7%	-25	-0.8%
CC1(C)Cc2c(cnn2-c2ccc(F)cc2)C(NC(=O)c2ccc(=O)oc2)C1 (stereo unspecified)	3	-4	-9	-0.7	17%	7	0.7%
COc1ccc(-c2noc(CN(C)C3CCOCC3)n2)cc1	-7	-2	11	3.5	15%	1	-1.8%
Oc1ccc(Nc2nc(N3CCCC3)c3ccccc3n2)cc1	-4	?	?	-3.9	-20%	-23	1.9%
O=C(O)C1(P(=O)(c2ccccc2)c2ccccc2)CCCC1	-7	0	4	-4.7	-4%	-8	0.3%
Cc1ccc(Cl)c(OCC(=O)Nc2ccccc2N2CCCCC2)c1	-4	5	3	-0.6	/	-12	?
COc1ccccc1NC(=O)c1cc2c(CO)cnc(C)c2oc1=Nc1cc(OC)c(OC)c(OC)c1	-2	3	0	1.5	5%	2	9.1%
O=C(NCC(c1ccc(F)cc1)N1CCOCC1)c1ccco1 (stereo unspecified)	-3	8	11	3.5	/	2	-0.4%
Cc1nc2c3cc(F)ccc3n(CCN3CCCCC3)c2s1	-8	-7	-13	-3.8	10%	-26	7.2%
O=S(c1ccccc1O)S(=O)c1ccccc1O (stereo unspecified)	/	-24	-6	-0.1	/	4	8.7%
CCCOC(=O)c1c(NC(=O)CCCn2nc([N+](=O)[O-])cc2C)sc(C(=O)OC)c1C	-9	0	7	-6.8	6%	-8	5.3%
CCOc1ccccc1CNC(=O)C1CCCN(c2nnc(C)c3c(C)n(-c4ccccc4)nc23)C1 (stereo unspecified)	-33	4	4	5.5	-8%	0	1.6%&1.2%
C[C@@H]1CN([C@@H](C)CO)C(=O)CCCn2nncc2CO[C@H]1CN(C)C(=O)c1cc(-c2ccccc2)on1	/	6	6	-1.8	/	0	-1.0%
COc1ccccc1N1CCN(C(=O)CN(CCc2ccccc2)S(C)(=O)=O)CC1	13	3	4	-0.3	5%	5	/
Cc1ccc2nc(Nc3ccccc3)cc(C)c2c1	-13	16	/	7.3	-18%	-4	4.8%
CCN(CC)CC#CCC(O)(c1ccccc1)C1CCCC1 (stereo unspecified)	27	0	-2	-0.3	1%	-17	-3.4%[38.3 µM]
CCn1cc(CN2CCc3c([nH]c4ccccc34)C2c2cccc(O)c2)c(C)n1 (stereo unspecified)	0	-15	4	-0.3	0%	-26	2.1%
COc1cccc(NC(=O)CN(C)C(=O)c2cc(C3CC3)nn2-c2ccccc2)c1	?	9	22	-1.7	/	1	1.8%
CCCCCCn1c(-c2cccs2)n[nH]c1=S	3	2	0	4.7	-14%	-2	1.5%
Cn1c(=O)c2cc(NC(=O)Cc3cccc4ccccc34)ccc2n1-c1ccccc1	/	-2	1	5.3	/	-2	5.5%
COc1ccc(CC(=O)OC(C)C(=O)Nc2ccc(S(N)(=O)=O)cc2)cc1 (stereo unspecified)	7	0	3	-5.6	/	-15	0.0%
Cc1ccc(NC(=S)Nc2ccc(C(C)C)cc2)cc1S(=O)(=O)N1CCCCCC1	-2	-16	-2	1.0	56µM*	-5	11µM*
Cc1cc(C)n(-c2ccc(Cl)c(C(=O)OCC(=O)N3CCCCC3C)n2)n1 (stereo unspecified)	-12	-1	1	2.4	-3%	-6	2.6%
O=C(N/N=C1/SCC(=O)N1Cc1ccco1)c1ccccc1F	-6	5	-11	-0.7	?	-20	-1.4%
CCCCN1CN(Cc2ccccc2)CNC1=S	3	-15	-2	-2.7	15%	-24	3.9%
N#CCC(=O)N/N=C\c1ccccc1OC/C=C/c1ccccc1	10	?	?	3.6	-7%	-3	7.5%
Cc1ccc(-n2ncc3c(N4CCCC(C)C4)ncnc32)c(C)c1 (stereo unspecified)	-7	-7	1	9.4	-26%	10	3.6%

Three entries drawn at random from the list so far:
SMILES	TRPV1 PAM	Six1-Eya2 blk	CtBP-E1A inh	D2 ag	Sfp PPTase inh	D2 PAM	PINK1 expr mod
Cc1ccc(-n2ncc3c(N4CCCC(C)C4)ncnc32)c(C)c1 (stereo unspecified)	-7	-7	1	9.4	-26%	10	3.6%
N#CCC(=O)N/N=C\c1ccccc1OC/C=C/c1ccccc1	10	?	?	3.6	-7%	-3	7.5%
COc1cccc(NC(=O)CN(C)C(=O)c2cc(C3CC3)nn2-c2ccccc2)c1	?	9	22	-1.7	/	1	1.8%

Later entries
SMILES	TRPV1 PAM	Six1-Eya2 blk	CtBP-E1A inh	D2 ag	Sfp PPTase inh	D2 PAM	PINK1 expr mod
O=C(O)C1CCN(S(=O)(=O)c2ccc3c(c2)OCCCO3)CC1	6	11	-5	-1.4	18%	-1	2.7%
COc1cccc(N(CC(=O)NC2CCCCC2)C(=O)c2snc(C(N)=O)c2N)c1	-7	2	0	-2.1	12%	-1	1.0%
CN(C)C(=S)NC(=O)C12CC3CC(C)(CC(C)(C3)C1)C2	-6	2	-3	4.0	-12%	-4	0.5%
COc1ccc(-c2cc(C(F)(F)F)c(C#N)c(SCC(=O)Nc3nc(C)co3)n2)cc1	9	-4	-15	-2.2	-11%	2	8.9µM*
O=C(CCS(=O)(=O)c1ccc(Cl)cc1)Oc1ccc2c(c1)OCO2	-3	2	4	2.4	9%	3	-1.2%
C/C=C/COC(=O)C1=C(C)NC(=O)NC1c1ccc2c(c1)OCO2 (stereo unspecified)	18	-2	2	-1.2	3%	-9	3.8%
Cc1ccc(NC(=O)COc2coc(CN3CCc4ccccc4C3)cc2=O)c(C)c1	-2	4	3	0.0	/	-1	-1.4%
COCCC(=O)N1CCC(Oc2ccc(C(=O)N3C[C@H]4CC[C@H]3C4)cc2)CC1	15	6	3	-1.3	11%	14	-0.8%
Nc1c(C(=O)C2CC2)sc2nc3c(cc12)CCC3	-13	2	14	-4.0	-7%	-1	0.9%
COc1cccc(-c2n[nH]nc2C2=CC(=O)C[C@H](c3ccc(F)cc3)C2)c1	/	25	-3	-1.1	/	-1	3.6%
COc1ccc(OC)c(NC(=O)COc2ccc(Br)cc2)c1	25	1	/	2.2	8%	5	7.5%
O=C(Cc1c(F)cccc1Cl)Nc1cc(S(=O)(=O)N2CCOCC2)ccc1N1CCCC1	/	?	0	1.3	/	-2	1.5%

Not a retest: an excerpt of the list.
SMILES	TRPV1 PAM	Six1-Eya2 blk	CtBP-E1A inh	D2 ag	Sfp PPTase inh	D2 PAM	PINK1 expr mod
COc1cccc(-c2n[nH]nc2C2=CC(=O)C[C@H](c3ccc(F)cc3)C2)c1	/	25	-3	-1.1	/	-1	3.6%
COc1ccc(OC)c(NC(=O)COc2ccc(Br)cc2)c1	25	1	/	2.2	8%	5	7.5%
O=C(Cc1c(F)cccc1Cl)Nc1cc(S(=O)(=O)N2CCOCC2)ccc1N1CCCC1	/	?	0	1.3	/	-2	1.5%

(continued)
SMILES	TRPV1 PAM	Six1-Eya2 blk	CtBP-E1A inh	D2 ag	Sfp PPTase inh	D2 PAM	PINK1 expr mod
O=C(NC1CCN(Cc2ccccc2)C1)c1cccc(S(=O)(=O)N2CCOCC2)c1 (stereo unspecified)	27	0	5	-2.8	/	-43	1.9%
COc1cccc(NC(=O)CN(C)C(=O)c2cn(-c3ccccc3)nc2-c2cccnc2)c1	-5	-3	5	-1.9	/	16	1.3%
COCCNC(=O)c1cc2cc3ccc(OC)cc3nc2o1	-11	-2	-5	0.8	13%	-4	-1.0%
CC(c1ccccc1F)n1cc(C(=O)NCCCc2nc3ccccc3[nH]2)nn1 (stereo unspecified)	8	11	-2	-1.5	26%	-20	1.9%

Screening data deposited in PubChem by National Center for Advancing Translational Sciences (NCATS).
